Cruzain noTriton = cruzain (T. cruzi) inhibition without detergent. P25779. purified cruzain, Z-FR-AMC fluorescence, no detergent. Potency, µM, inactives show max response, negative = inhibition, most hits filed as inhibitors. 200,000 tested, 2.3% active;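 further: plate controls were enzyme without inhibitor for no effect and buffer without enzyme for full effect; nearly all actives have a fitted effect of over 40% in size; top concentration of the series not given in the record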
Target sequence (P25779 123-467 limits assumed): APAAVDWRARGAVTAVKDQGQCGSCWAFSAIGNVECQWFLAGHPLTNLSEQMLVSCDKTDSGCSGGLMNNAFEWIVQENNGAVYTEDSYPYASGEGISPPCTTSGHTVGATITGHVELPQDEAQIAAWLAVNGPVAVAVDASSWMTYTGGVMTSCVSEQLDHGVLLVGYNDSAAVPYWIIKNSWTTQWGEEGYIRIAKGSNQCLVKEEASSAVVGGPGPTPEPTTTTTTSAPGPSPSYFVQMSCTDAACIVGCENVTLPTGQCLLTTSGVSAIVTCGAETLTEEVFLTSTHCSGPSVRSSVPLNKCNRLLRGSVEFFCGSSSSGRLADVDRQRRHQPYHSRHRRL
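Detergent-free condition (0.00005% Triton X-100) in acetate buffer pH 5.5 with DTT. 1.5 nM enzyme and compound were pre-mixed 15 min, then 2 uM Z-FR-AMC substrate added; reaction progress from fluorescence change between first and third reads (60 s).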
MARV entry inh = blocks Marburg virus binding to or entry into cells; AID 540276; 300,000 tested, 1.8% active; Potency, µM (series often up to 37.8 µM), without a hit: top-dose activity change, negative = inhibition, usual class: inhibitors; Marburg virus pseudotyped entry inhibition, cell reporter; control for the full effect not named in the record; about a third of the inactives were read at about 46 µM; active = well fitted inhibition curve with a large enough effect; inconclusive = small, poorly fitted or top-dose-only effect, or effect the other way; inactive = flat fitted curve, though single readings scatter; tested in HEK293 cells; about a fifth of its hits are not listed in these tables; further: on the % scale 0 is the no-effect control and ±100 the full control effect; luciferase read-out
RE007 growth inh = less growth of the S. pombe RE007 Vpr strain. S. pombe RE007 Vpr strain, BacTiter-Glo ATP luminescence, 24 h; control for the full effect not named in the record. Potency, µM (doses to about 92.2 µM), for inactives: at the highest dose activity change, negative = less growth. 360,000 tested, 0.21% active. AID 651644; active = well fitted falling curve with a large enough effect; inconclusive = small, poorly fitted or top-dose-only effect; inactive = no such curve, though single readings can be large or run the other way;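 further: on the % scale 0 is the no-effect control and ±100 the full control effect; nearly all actives have a fitted effect of over 50% in size; the assay follows cell death caused by Vpr and the record does not say whether a fall means rescue or toxicity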
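Fission yeast RE007 carrying one integrated HIV-1 vpr copy, seeded at OD 0.01 in PMG+AL medium with 23 nL pinned compound. Grown 24 h at 30 degrees; viability read by BacTiter-Glo luminescence after 5 min.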
NS1 function inh = inhibitors of influenza NS1 protein function; AID 2326; S. cerevisiae slowed by influenza A NS1, growth recovery by OD600; 270,000 tested, 0.4% active; Potency, µM (highest dose often 46.1 µM), for inactives: at the top dose activity, positive = more growth; active means well fitted rising curve with a large enough effect; inconclusive means small, poorly fitted or top-dose-only effect; inactive means no such curve, though single readings can be large or run the other way; further: nearly all actives have a fitted effect of over 50% in size
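Growth recovery, yeast-based: influenza A NS1 expressed in S. cerevisiae causes slow growth, and suppressors are detected by OD600. The parent strain without NS1 is used as positive control.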
StopGo reporter = FMDV 2A StopGo reporter, luciferase signal | human cells with a luciferase reporter of 2A StopGo recoding; control for the full effect not named in the record | Potency, µM (doses to about 57.9 µM), inactives show at the highest dose signal change, negative = less light | 410,000 tested, 1.2% active; active = well fitted falling curve with a large enough effect; inconclusive = small, poorly fitted or top-dose-only effect; inactive = no such curve, though single readings can be large or run the other way; tested in HEK293T cells; further: on the % scale 0 is the no-effect control and ±100 the full control effect; nearly all actives have a fitted effect of over 45% in size; luciferase light after 4 h
Cruzain Triton = inhibitors of Trypanosoma cruzi cruzain with detergent; 200,000 tested, 0.43% active; P25779; Potency, µM, inactives show max response, negative = inhibition, usual class: inhibitors; purified cruzain, Z-FR-AMC fluorescence, 0.01% Triton;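 further: plate controls were neutral wells for no effect and buffer without enzyme for full effect; nearly all actives have a fitted effect of over 40% in size; top concentration of the series not given in the record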
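15 min RT preincubation of 1.5 nM cruzain with compound, then 2 uM Z-FR-AMC added; kinetic AMC fluorescence, 60 s delta. Triton X-100 0.01%, pH 5.5.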
Lassa entry inh = blocks Lassa virus binding to or entry into cells. Lassa virus pseudotype entry inhibition, cell reporter; control for the full effect not named in the record. Potency, µM (titrated, usually from 37.9 µM), for inactives: at the highest dose activity change, negative = inhibition, most hits filed as inhibitors. 300,000 tested, 1.2% active. AID 540256; active means well fitted inhibition curve with a large enough effect; inconclusive means small, poorly fitted or top-dose-only effect, or effect the other way; inactive means flat fitted curve, though single readings scatter; tested in HEK293 cells; further: on the % scale 0 is the no-effect control and ±100 the full control effect; nearly all actives have a fitted effect of over 50% in size; luciferase read-out
SARS PLP yeast = inhibitors of SARS-CoV papain-like protease in yeast; 330,000 tested, 0.19% active; Potency, µM (top dose mostly 32.9 µM), inactives show at the highest dose activity, positive = growth rescue; AID 485353; S. cerevisiae expressing SARS-CoV PLpro, growth rescue; control for the full effect not named in the record; active means well fitted rising curve with a large enough effect; inconclusive means small, poorly fitted or top-dose-only effect; inactive means no such curve, though single readings can be large or run the other way; further: 0% is about no effect; nearly all actives have a fitted effect of over 55% in size; growth read by luminescence after 48 h
Starred values were filed as active, the others as inactive; u = inconclusive; x = not tested or not shown; & = joins results of further samples; [ ] = another dose, or the depositor's remark. Unless noted, the call rests on the fitted dose curve; in most records, active means well fitted curve in the direction sought with a large enough effect; inconclusive means small, poorly fitted or top-dose-only effect, or another doubt; inactive means no such curve, though single readings can be large; an effect the other way counts as inactive or inconclusive. Potency means the concentration at half of the fitted maximal effect.

Values run as follows: Cruzain noTriton, MARV entry inh, RE007 growth inh, NS1 function inh, StopGo reporter, Cruzain Triton, Lassa entry inh, SARS PLP yeast
- CCn1c(SCc2ccc(C(=O)Nc3nccs3)cc2)nnc1-c1ccc(N)cc1
→ -15%, u, -5%, 19%, -29%, 5.2%, -24%, 0%
- O=C(Nc1ccc(COc2ccccc2)cc1)Oc1ccccc1N1CCOCC1
→ x, 3%, -4%, -1%, 23%, x, u, -3%
- O=C(Nc1nn(Cc2ccccc2F)cc1Br)c1cccs1
→ -11%, -4%, 3%, -25%, 7%, -4.3%, 20%, -3%
- CCOC(=O)c1c(C)[nH]c(C)c1C(=O)CSc1nc2ccccc2c(=O)n1-c1ccccc1C
→ 11%, u, 0%, 8%, 0%, -6.9%, u, -5%
- CCN(C(=O)COC(=O)/C=C/c1cnc2ccccc2n1)C1CCS(=O)(=O)C1 (stereo not drawn)
→ x, u, -4%, x, -12%, x, u, 0%
- CN(C)S(=O)(=O)c1ccc(NC(=O)COC(=O)C2COc3ccccc3O2)cc1 (stereo not drawn)
→ x, 18%[46.1 µM], -6%, 1%, -15%, x, -7%, 0%
- CCOC(=O)C1=C(C)N=c2s/c(=C/c3ccc(OCC(=O)O)cc3)c(=O)n2C1c1cc(OC)c(OC)c(OC)c1 (stereo not drawn)
→ x, u, -1%, u, 0%, x, 21%, -1%
- CCC(C)OC(=O)/C(C#N)=C\c1ccc(-c2ccccc2Cl)o1 (stereo not drawn)
→ -3%, x, x, x, 34%[activator], -2.6%, -6%[46.1 µM], x
- Cc1ccc(NC(=O)CN(C)C(=O)CSc2nc(C)cs2)cc1
→ x, -24%[46.1 µM], -17%, x, -11%, x, -14%, -3%
- CCCCCCCCCCOC(=O)Cn1c(COc2ccc(OC)cc2)[n+](C)c2ccccc21
→ x, 3.2µM*, -18%, -52%&-159%, u, x, u, -6%&-15%
- CCOC(=O)N1CCN(C(=O)c2cccc(NC(=O)c3ccco3)c2)CC1
→ 2%, 21%[46.1 µM], 3%, 14%, -21%, 4.5%, 0%, 3%
- O=C(Nc1nnc(S(=O)(=O)N2CCCc3ccccc32)s1)c1ccccc1Cl
→ -5%, x, x, x, -12%, -1.4%, 8%[46.1 µM], x
- O=C(COc1ccc(Cl)cc1Cl)NC(=O)N1CCCCC1
→ 2%, u, 9%, -22%, x, 2.4%, u, -3%
- COc1ccc(N2CC(C(=O)Nc3c(C(N)=O)oc4ccccc34)CC2=O)cc1 (stereo not drawn)
→ x, -6%, -12%, x, -6%, x, 14%, 0%
- O=C(c1cnn2c1NC(c1ccc(Br)cc1)CC2C(F)(F)F)N1CCN2CCCC2C1 (stereo not drawn)
→ -7%, u, 5%, -7%, 1%, -1.4%, u, -4%
- Cc1ccc(CN2CC(C(=O)Nc3ccc(C)cn3)CC2=O)cc1 (stereo not drawn)
→ x, 19%[46.1 µM], 9%, x, -5%, x, -11%, 0%
- Cc1cc(NC(=O)C2CC(=O)N(c3ccc(F)cc3)C2)no1 (stereo not drawn)
→ x, 4%[46.1 µM], -1%, 2%, 4%, x, 21%[46.1 µM], 1%
- Cc1ccc(S(=O)(=O)NC(=O)c2cccc(Br)c2)cc1
→ x, -14%, -12%, -5%, 22%, x, 0%, -11%
- Cc1ccc(NC(=O)CCC(=O)NNC(=O)c2cccc([N+](=O)[O-])c2)cc1C
→ -7%, 4%, 4%, 17%, 8%, 5.7%, 0%, 4%
- COc1ccccc1CNC(=O)C1CCN(c2ncnc3c2nc2n3CCCCC2)CC1
→ x, 4%&4%[46.1 µM], -11%, 0%, -10%&-16%, x, 4%&-1%[46.1 µM], 0%

Taken from above:
Cruzain noTriton, CCOC(=O)c1c(C)[nH]c(C)c1C(=O)CSc1nc2ccccc2c(=O)n1-c1ccccc1C = 11%
StopGo reporter, CCC(C)OC(=O)/C(C#N)=C\c1ccc(-c2ccccc2Cl)o1 (stereo not drawn) = 34%[activator]

(cont.)
Values run as follows: Cruzain noTriton, MARV entry inh, RE007 growth inh, NS1 function inh, StopGo reporter, Cruzain Triton, Lassa entry inh, SARS PLP yeast
- O=C(/C=C/c1ccc([N+](=O)[O-])cc1)OCC(=O)c1ccc[nH]1
→ x, -6%, -22%, x, -13%, x, 4%, 1%
- O=C(CSc1ccccn1)NCc1ccc2c(c1)OCO2
→ x, u, -4%, -6%, 62%[activator], x, 4%, -1%
- CCN(c1ccccc1)c1nnc(NC(=O)Nc2ccc(Br)c(C)c2)s1
→ 2%, 9%[46.1 µM], x, x, -15%, -3.9%, -2%[46.1 µM], x
- Cc1ccc(CNC(=O)COC(=O)c2cncc(Br)c2)cc1
→ x, 2%[46.1 µM], 2%, x, -11%, x, 3%[46.1 µM], 0%
- COc1ccc(C(=O)NCC(=O)OCC(=O)N2CCC(C)CC2)cc1OC
→ x, -8%[46.1 µM], -17%, x, -1%, x, 4%, 9%
- CCOc1ccc(/C=C/C(=O)N(CC)CC(=O)Nc2ccc3c(c2)OCCO3)cc1OC
→ x, -21%[46.1 µM], -4%, x, -11%, x, 17%, 6%
- COc1ccccc1/C=N/NC(=O)CCSc1ccccc1
→ 6%, 5%, -8%, -14%, 2%, -5.7%, -5%, -2%
- O=C(Nc1ccccc1)N1CCCN(Cc2ccccc2F)C1
→ 1%, u, 14%, 2%, -14%, -1.7%, 0%, 1%
- O=C(C1=C(O)C(=O)N(CC2CCCO2)C1c1ccccc1[N+](=O)[O-])c1ccco1 (stereo not drawn)
→ x, 15%[46.1 µM], -7%, 5%, 25%, x, 6%[46.1 µM], -1%
- COCC1CCN(Cc2c(C(=O)N3CCN(C4CCCCC4)CC3)nc3ccccn23)C1 (stereo not drawn)
→ x, x, -3%, 3%, -22%, x, x, 0%
- COc1ccc(-c2noc(CCCC(=O)Nc3ccc(C(N)=O)cc3)n2)cc1OC
→ x, -21%, 1%, 4%, 5%, x, 4%, -1%
- COc1ccc2oc(C(=O)OCC(=O)N(C)c3c(N)n(Cc4ccccc4)c(=O)[nH]c3=O)c(C)c2c1
→ x, 1%, -2%, x, 0%, x, 16%, 7%
- COc1ccccc1N(CC(=O)NC1CCCC1)C(=O)CCC(=O)Nc1cc(C)on1
→ -2%, 3%, -13%, -13%, -13%, -6.1%, 19%, -3%
- Cc1cccc(OCC(=O)OC(C)C(=O)Nc2ccc(S(=O)(=O)N3CCCCC3)cc2)c1 (stereo not drawn)
→ x, 8%, 22%, x, -7%, x, u, 0%
- CCOC(=O)C(NC(=O)c1ccc(OC)cc1)(OCC1(CC)COC1)C(F)(F)F (stereo not drawn)
→ 9%, 5%, 5%, 0%, -18%, 1.3%, -4%, 2%
- COc1ccc(-c2noc(-c3ccc(N4CCOCC4)c([N+](=O)[O-])c3)n2)cc1
→ u, 4%[46.1 µM], x, x, -13%, -8.9%, 9%[46.1 µM], x
- CCc1ccc2c(c1)C(NC(C)=O)C(=O)N2CCN1CCOCC1 (stereo not drawn)
→ x, 11%[46.1 µM], 3%, 4%, -16%, x, 9%, -2%
- C/C=C(/C)C(=O)Nc1cccc(C2=NOC3(C2)C[C@@H](C(N)=O)N(C(=O)CCCCC)C3)c1 (stereo partly drawn)
→ x, x, 11%, 3%, -4%, x, x, 3%
- CN(C(=O)CN1C(=O)S/C(=C\c2ccc(F)cc2)C1=O)C1CCS(=O)(=O)C1 (stereo not drawn)
→ x, x, 0%, -10%, -24%, x, x, 2%
- COc1ccc(C(=O)C2CN(c3ccccc3)CC2c2ccc(Cl)cc2)cc1 (stereo not drawn)
→ 16µM*, -11%, -4%, -6%, -11%, 6.0%, u, 13%

2 records picked at random from the list so far, as already listed:
Values run as follows: Cruzain noTriton, MARV entry inh, RE007 growth inh, NS1 function inh, StopGo reporter, Cruzain Triton, Lassa entry inh, SARS PLP yeast
- CN(C)S(=O)(=O)c1ccc(NC(=O)COC(=O)C2COc3ccccc3O2)cc1 (stereo not drawn)
→ x, 18%[46.1 µM], -6%, 1%, -15%, x, -7%, 0%
- CCC(C)OC(=O)/C(C#N)=C\c1ccc(-c2ccccc2Cl)o1 (stereo not drawn)
→ -3%, x, x, x, 34%[activator], -2.6%, -6%[46.1 µM], x

An excerpt from above in order of formula weight, highest first.
Values run as follows: Cruzain noTriton, MARV entry inh, RE007 growth inh, NS1 function inh, StopGo reporter, Cruzain Triton, Lassa entry inh, SARS PLP yeast
- COCC1CCN(Cc2c(C(=O)N3CCN(C4CCCCC4)CC3)nc3ccccn23)C1 (stereo not drawn)
→ x, x, -3%, 3%, -22%, x, x, 0%
- COc1ccccc1N(CC(=O)NC1CCCC1)C(=O)CCC(=O)Nc1cc(C)on1
→ -2%, 3%, -13%, -13%, -13%, -6.1%, 19%, -3%
- COc1ccccc1/C=N/NC(=O)CCSc1ccccc1
→ 6%, 5%, -8%, -14%, 2%, -5.7%, -5%, -2%

Additional results follow.
Values run as follows: Cruzain noTriton, MARV entry inh, RE007 growth inh, NS1 function inh, StopGo reporter, Cruzain Triton, Lassa entry inh, SARS PLP yeast
- CCOc1ccc(OCCC(=O)OCC(=O)Nc2ccc(N3CCOCC3)cc2)cc1
→ x, 0%, -15%, 4%, 6%, x, 8%, 1%
- CC(=O)NC1C(OCc2ccccc2)OC(CO)C(OC(C)=O)C1OC(C)=O (stereo not drawn)
→ 7%, 16%, -3%, 0%, -13%, 2.9%, 21%, 9%
- CCC(C(=O)NCCc1ccc(OC)c(OC)c1)n1nc(C)c2sc3ccccc3c2c1=O (stereo not drawn)
→ u, 19%[46.1 µM], x, x, -26%, -12%, 0%[46.1 µM], x
- COc1cc(C(=S)N2CCOCC2)ccc1O
→ x, -1%&-1%[46.1 µM], 4%, 0%, -1%, x, 3%, 1%
- COC(=O)C1CCCN1S(=O)(=O)c1ccccc1NC(=O)c1cc(OC)c(OC)c(OC)c1 (stereo not drawn)
→ x, -6%[46.1 µM], 13%, -12%, -13%, x, u, 1%
- COc1ccc(NC(=O)c2cc(-c3cc(C)ccc3O)n[nH]2)cc1Cl
→ -19%, 17%, 5%, 5%, 16%, 4.3%, 9%, 5%
- Cn1c(=O)n(Cc2ccc(F)cc2)c(=O)c2c1nc1n2CCCN1Cc1ccccc1
→ 6%, u, 12%, -36%, -12%, -4.1%, u, 2%

Screens deposited in PubChem by National Center for Advancing Translational Sciences (NCATS).
